Assay outcomes (PubChem)
YopH PTP inh – blocks Yersinia enterocolitica YopH tyrosine phosphatase; fluorescence Ex485/Em525; AID 898; inhibition, %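 (about 10 µM by stock and volumes)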; 140,000 compounds, 0.16% hits;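 active = inhibition of 50% or more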;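 note: controls were vehicle for no effect and minimum signal wells for full effect; inactives centre near -20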
Mtb growth – M. tuberculosis H37Rv growth inhibitors, H37Rv strain (AID 1626); M. tuberculosis H37Rv growth inhibition; higher % means a stronger effect; one-dose inhibition, % at 10 µM; IC50 in µM for titrated hits; 220,000 compounds, 0.95% hits;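 active = confirmed in a dose series; inconclusive = inhibition above 80% but not taken into the dose series; inactive = below 80% or under 30% at every dose of the series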;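 note: bacteria incubated seven days before Alamar blue readout; 0% = bacteria only wells and 100% = bacteria with antibiotic wells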
Arbovirus inh – blocks arbovirus infection | AID 1251 | arbovirus infection cell-based antiviral screen | inhibition, % at 10 µM | 200,000 compounds, 0.37% hits;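 active = inhibition from about 30%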;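 note: bluetongue infection of BSR cells; cell survival read as ATP light after 72 h; 0% = infected wells without compound and 100% = uninfected wells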
Mtb betalactam – beta-lactam sensitization of Mtb H37Rv; M. tuberculosis H37Rv growth with meropenem, percent inhibition; hits of this screen are not shown here; inhibition, % at 25 µM; 330,000 compounds, 0.27% hits;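 active = about 74% or more and at least 40 points above the plate without the antibiotic, then above 30% in a dose series; inconclusive = first-round hits that could not be retested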;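 note: growth measured after seven days incubation then overnight dye step; 0% = bacteria only wells and 100% = bacteria with antibiotic; twin plates without the antibiotic show which effects depend on it; some results filed as inactive read as strong as hits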
RecA intein inh – blocks M. tuberculosis RecA intein splicing; P9WHJ3; inhibition, %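 (about 9 µM by stock and volumes)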; cell-free RecA intein splicing, fluorescence; 290,000 compounds, 0.75% hits; in the data active = inhibition above about 30%; inconclusive = no clear call, values can overlap the other calls;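 note: 0% = vehicle wells and 100% = reference inhibitor control wells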
Target sequence (P9WHJ3 whole entry, looked up): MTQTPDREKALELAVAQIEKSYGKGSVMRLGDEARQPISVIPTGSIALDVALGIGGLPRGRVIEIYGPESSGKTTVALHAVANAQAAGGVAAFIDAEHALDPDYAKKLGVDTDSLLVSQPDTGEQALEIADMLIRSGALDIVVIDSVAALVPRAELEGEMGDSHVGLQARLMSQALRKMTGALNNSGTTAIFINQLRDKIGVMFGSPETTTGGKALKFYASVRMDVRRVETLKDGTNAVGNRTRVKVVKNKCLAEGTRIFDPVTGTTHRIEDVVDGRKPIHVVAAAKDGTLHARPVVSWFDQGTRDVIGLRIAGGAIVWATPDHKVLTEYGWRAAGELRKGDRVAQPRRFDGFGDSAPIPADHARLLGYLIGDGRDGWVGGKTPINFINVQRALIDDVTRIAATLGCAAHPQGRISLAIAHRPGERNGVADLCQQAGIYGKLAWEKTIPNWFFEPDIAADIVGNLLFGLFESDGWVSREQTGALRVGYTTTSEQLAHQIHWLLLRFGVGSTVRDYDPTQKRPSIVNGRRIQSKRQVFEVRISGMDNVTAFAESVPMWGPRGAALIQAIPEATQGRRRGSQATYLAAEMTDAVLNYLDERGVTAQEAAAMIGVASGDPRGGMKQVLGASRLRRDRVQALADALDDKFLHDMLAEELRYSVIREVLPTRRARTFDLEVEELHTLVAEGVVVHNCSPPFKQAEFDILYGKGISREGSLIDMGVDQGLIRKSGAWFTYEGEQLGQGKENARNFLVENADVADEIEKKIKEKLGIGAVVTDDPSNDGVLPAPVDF
Arbovirus inh repeat – further read-out of Arbovirus inh, marked with its call; inhibition, %; measured here: 10K subset replicate screen; many hits read low in the repeat;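 first of two repeat runs on a subset; 0% = infected and 100% = uninfected wells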
Numbers without * were called inactive; ? = inconclusive; / = not tested or not shown.

SMILES	YopH PTP inh	Mtb growth	Arbovirus inh	Mtb betalactam	RecA intein inh	others
O=C1C2C3C=CC(C3)C2C(=O)N1CCCCN1C(=O)C2C3C=CC(C3)C2C1=O (centres undefined)	-31	0%	-12	9	-1.4
COc1ccc(C(=O)NCCCNC(=O)c2cnccn2)cc1	/	/	/	-10	-5.4
CN(/C=C/c1c([N+](=O)[O-])c(=O)n(C)c(=O)n1C)c1ccccc1	/	-5%	2	-10	-1.9
CCN(CC)S(=O)(=O)c1cc(C(=O)OCC(=O)NC(=O)c2cccn2C)ccc1C	-15	-5%	-1	2	-2.5
COc1ccc(C2=NN(c3nc4ccccc4s3)C(=O)/C2=C\N(C)C)cc1	-29	-1%	25	4	0.1
NC(=S)N1CCCc2ccccc21	/	-11%	/	-2	/
COc1ccc(NC(=O)Nc2ccc([N+](=O)[O-])cc2)cn1	/	/	/	0	1.1
O=C(/C=C\c1cccs1)N1CCN(Cc2ccc3c(c2)OCO3)CC1	/	?	-14	59	-0.3
COc1ccccc1NC(=O)CSc1nnc(-c2ccncc2)n1CC1CCCO1 (centres undefined)	-14	-3%	-1	-9	-1.8
COc1ccc(NC2=NC(C)(C)CS2)cc1	/	0%	3	-4	-0.1
CCC(=O)Nc1ccc2c(c1)nc1n2CCSC1	-36	-6%	9	-2	-0.6
OCC(O)CN(c1ccccc1)c1ccccc1 (centres undefined)	/	7%	14	-3	-1.1
CC(=O)C1=C(C)OC2(O)c3ccccc3C(=O)C12O (centres undefined)	/	-3%	/	2	8.6
COc1ccc(C2CC(c3ccccc3)=NN2c2ccc(C(N)=O)cc2)cc1 (centres undefined)	/	/	/	-19	-234
CCOC(=O)c1ccc(NC(=S)NCc2ccco2)cc1	/	10%	/	-5	0.5

Looked up by structure from above (2):
SMILES	YopH PTP inh	Mtb growth	Arbovirus inh	Mtb betalactam	RecA intein inh	others
CN(/C=C/c1c([N+](=O)[O-])c(=O)n(C)c(=O)n1C)c1ccccc1	/	-5%	2	-10	-1.9
COc1ccc(NC2=NC(C)(C)CS2)cc1	/	0%	3	-4	-0.1

Following part
SMILES	YopH PTP inh	Mtb growth	Arbovirus inh	Mtb betalactam	RecA intein inh	others
OC(COc1ccc2ccccc2c1Br)Cn1cnc(-c2ccccc2)c1 (centres undefined)	-11	20%	10	76	-1.9
CSC1=N/C(=C\c2ccc3c(c2)OCO3)C(=O)S1	-9	9%	0	4	-2.3
COc1cc(OC)c(C(=O)OCC(=O)NCCc2ccccc2)cc1OC	/	0%	-5	5	5.5
N#CCCn1c(SCC(=O)NCCc2ccc(F)cc2)nc2ccccc21	-38	3%	-1	-2	1.6
CCCNC(=O)C1CC(c2cccc(F)c2)=NO1 (centres undefined)	/	-14%	/	-2	-2.1
COc1ccccc1N1CCN(CC(O)c2ccccc2)CC1 (centres undefined)	/	/	/	10	-0.9
Cc1cccc(C(=O)OCC(=O)Nc2nnc(-c3ccccc3)o2)c1O	/	/	/	66	-0.2
C=CCn1c(N/N=C/c2ccc(O)cc2)nc2ccccc2c1=O	/	4%	-9	21	0.1
CCOC(=O)C(C)Sc1nc2c(c(=O)[nH]c(=O)n2C)n1Cc1ccc(Cl)cc1 (centres undefined)	-25	7%	1	-2	1.0	Arbovirus inh repeat=3
O=C(CN1CCc2ccccc21)NN1CC(=O)N(c2ccc(Cl)cc2)CC1=O	/	9%	/	-9	-0.9
CCCCCc1cc(=O)oc2c(C(CCN3CCCC3)c3cc(OC)c(OC)c(OC)c3)c(OC)cc(OC)c12 (centres undefined)	/	?	/	100	11
CCOC(=O)C1(Cc2ccc(Cl)cc2)CCN(C2CCC2)CC1	/	/	/	0	0.3
COP(=O)(CC(=O)c1ccccc1)CC(=O)c1ccccc1	/	6%	9	-3	-2.1
COc1ccccc1C(=O)C1CCCN(C(=O)c2ccco2)C1 (centres undefined)	/	/	/	-5	0.6
O=C(COC(=O)C1CC2C=CC1C2)NCCc1ccccc1 (centres undefined)	/	2%	9	-10	-1.0
CCOC(=O)C1=C(C)N(C)C(=S)NC1c1ccccc1 (centres undefined)	-34	-1%	7	8	3.2
CCOc1ccc(/C(O)=C2/C(=O)C(=O)N(c3nc(C)c(C)s3)C2c2ccco2)cc1 (centres undefined)	-38	-13%	12	49	-1.8
Cc1cc(=O)[nH]c(N/N=C/c2ccc(OC(=O)c3ccco3)cc2)n1	-34	2%	-3	4	2.9
COc1ccc(-c2cc(C(=O)Nc3ccccc3F)on2)cc1	/	10%	7	0	-2.2
O=C(NCC1(N2CCOCC2)CCCCC1)c1ccc(Cl)c(S(=O)(=O)NCc2ccco2)c1	-9	-11%	-4	-1	2.9
CCOC(=O)c1sc(=NC(=O)c2ccc(Br)cc2)n(C)c1C	/	/	/	-12	-3.3
CCCn1c(N)c(NCCN2CCOCC2)c(=O)[nH]c1=O	/	1%	16	3	-5.3
COc1ccccc1CNC(=O)C1=CCN(S(=O)(=O)c2ccc(C)cc2)CC1	/	2%	/	-5	0.1
CCN(CC(=O)Nc1ccc(NC(C)=O)cc1)C(=O)/C=C/c1ccc2c(c1)OCO2	/	/	/	3	-2.1
Cc1ccc(C)c(-n2c(CNC(=O)c3ccco3)nnc2SCC(=O)Nc2nccs2)c1	-20	/	5	-6	/
CN(C)/C=C(\C#N)C(=O)c1cccnc1Oc1ccc(F)cc1F	2	3%	4	/	0.4
COc1ccccc1N/N=C(\C#N)C(=N)N1CCOCC1	/	-8%	-4	-6	7.0
COc1ccc(-c2cc3nc(C)cc(C)n3n2)cc1	-23	-2%	0	10	0.7
COCCN1C(=O)N(c2cccc(C)c2)C(=O)C1CC(=O)Nc1ccc(OC)cc1 (centres undefined)	/	/	/	1	-0.9
O=C(O)CNC(=O)CC1S/C(=N/N=C2/NC(=O)CS2)NC1=O (centres undefined)	/	3%	9	8	-0.1
O=C(N/N=C/c1cc(Cl)ccc1O)C(=O)Nc1ccccc1OC(F)(F)C(F)F	-52	15%	-22	2	/
CCCN(CC(=O)Nc1ccccc1OC)C(=O)c1ccc(S(=O)(=O)Nc2ccccc2)cc1	/	/	/	-20	2.0
Cc1ccc(C)c(NC(=S)NNC(=O)c2cc3c(s2)CCC(C)C3)c1 (centres undefined)	-6	-3%	-14	-2	5.6
CNS(=O)(=O)c1ccc(NC(=O)c2ccoc2C)cc1	/	0%	7	-3	-2.3
COc1ccc(NC(=O)CN2CCN(S(=O)(=O)c3ccc(Br)cc3)CC2)c(OC)c1	/	/	/	12	-3.4
CC(C)(C)c1ccc(C(=O)Nc2sc3c(c2C(=O)O)CCC3)cc1	/	25%	32*	21	6.3
CC(NC(=O)c1ccc2c(c1)OCO2)C(c1cccs1)N1CCN(c2ccccc2)CC1 (centres undefined)	/	-2%	/	-3	1.2
COc1cccc(OCCOc2c(OC)cccc2OC)c1	-16	11%	-3	0	2.2
CC(=O)c1ccc(NC(=O)CCCN2C(=O)C(c3ccccc3)Oc3cccnc32)cc1 (centres undefined)	/	/	/	0	3.1
O=C(c1cc(-c2ccccc2)on1)N1CCN(Cc2ccc3c(c2)OCO3)CC1	-31	9%	5	-9	3.0
COC(=O)/C=C1\N/C(=N\c2nc(C)cc(C)n2)N(c2ccccc2)C1=O	/	-11%	/	-5	3.0
CCn1c(SCC(=O)OC)nnc1C1CCCCC1	-14	-6%	7	2	0.1
COc1ccc(C)cc1S(=O)(=O)NCC(c1cccnc1)N1CCc2ccccc2C1 (centres undefined)	/	/	/	5	2.3
N#Cc1cc(-c2ccccc2)nc(NN)n1	/	4%	/	-5	-6.4
Nc1nc(CN2CCN(c3cccc(Cl)c3)CC2)nc(N2CCCc3ccccc32)n1	-5	10%	-12	68	12
FC(F)(F)c1ccccc1NC(=S)Nc1ccccc1	/	/	/	1	0.8
CCOC(=O)C(C)N1C(=O)S/C(=C/c2ccc3c(c2)n(C)c(=O)n3C)C1=O (centres undefined)	/	7%	-12	50	1.6
CCOc1ccc(-n2nc3c(Cl)nnc(C)c3c2C)cc1	-28	-1%	3	1	-1.3
Cn1cc(SCC(=O)NCCc2ccccc2)c2ccccc21	/	6%	-2	-5	-1.1
CCOC(=O)c1cc(-c2ccc(C)cc2)n(CCC(=O)NCCCOC)c1C	-32	5%	-4	9	-0.4
CN(C)S(=O)(=O)N1CCC(n2nccc2NC(=O)CCc2ccccc2)CC1	/	/	/	?	0.3
c1cncc(-c2nc(-c3ccc4c(c3)OCO4)cs2)c1	1	1%	1	73	-1.3
CCOC(=O)C1=C(C)N(c2ccccc2)C(=O)C1	-3	-2%	0	-5	3.4
Cc1ccc(CNc2ccc(N3C(=O)CCCC3=O)cc2[N+](=O)[O-])cc1	-21	-5%	-6	0	5.3
COc1cc(NC(=O)c2ccc(F)cc2)ccc1NC(=O)c1cc2ccccc2o1	/	/	/	6	-1.9
COC(=O)c1c(NC(=O)CSc2nc3nc(C)cc(C)n3n2)sc(C)c1C	-43	-3%	-3	-7	0.8
O=c1c2ccccc2c2c(O)nc(-c3ccccc3)n2n1Cc1ccccc1	-14	2%	6	-4	0.8
c1ccc2[nH]c(NCCN3CCOCC3)nc2c1	-1	5%	0	-4	1.3
CN(C(=O)CS(=O)(=O)c1cn(CC(=O)N2CCOCC2)c2ccccc12)c1ccccc1	/	-3%	6	-8	0.5
CN(C(=O)CSc1nnc(N)s1)c1c(N)n(Cc2ccccc2)c(=O)[nH]c1=O	-7	-2%	3	-6	-0.3

Entries listed so far with a Cl atom (7):
SMILES	YopH PTP inh	Mtb growth	Arbovirus inh	Mtb betalactam	RecA intein inh	others
CCOC(=O)C(C)Sc1nc2c(c(=O)[nH]c(=O)n2C)n1Cc1ccc(Cl)cc1 (centres undefined)	-25	7%	1	-2	1.0	Arbovirus inh repeat=3
O=C(CN1CCc2ccccc21)NN1CC(=O)N(c2ccc(Cl)cc2)CC1=O	/	9%	/	-9	-0.9
CCOC(=O)C1(Cc2ccc(Cl)cc2)CCN(C2CCC2)CC1	/	/	/	0	0.3
O=C(NCC1(N2CCOCC2)CCCCC1)c1ccc(Cl)c(S(=O)(=O)NCc2ccco2)c1	-9	-11%	-4	-1	2.9
O=C(N/N=C/c1cc(Cl)ccc1O)C(=O)Nc1ccccc1OC(F)(F)C(F)F	-52	15%	-22	2	/
Nc1nc(CN2CCN(c3cccc(Cl)c3)CC2)nc(N2CCCc3ccccc32)n1	-5	10%	-12	68	12
CCOc1ccc(-n2nc3c(Cl)nnc(C)c3c2C)cc1	-28	-1%	3	1	-1.3

Of the compounds above, these have a COOH group:
SMILES	YopH PTP inh	Mtb growth	Arbovirus inh	Mtb betalactam	RecA intein inh	others
O=C(O)CNC(=O)CC1S/C(=N/N=C2/NC(=O)CS2)NC1=O (centres undefined)	/	3%	9	8	-0.1
CC(C)(C)c1ccc(C(=O)Nc2sc3c(c2C(=O)O)CCC3)cc1	/	25%	32*	21	6.3

The listing continues:
SMILES	YopH PTP inh	Mtb growth	Arbovirus inh	Mtb betalactam	RecA intein inh	others
Clc1ccc(NCc2ccsc2)cc1	/	/	/	-2	-1.7
COc1ccc(CN2CCC(CO)(Cc3ccccc3C(F)(F)F)CC2)c(F)c1	/	4%	7	-2	4.6
CC(C)COC(=O)/C(C#N)=C/c1c[nH]c2ccccc12	-29	-10%	2	2	-18
Cc1ccccc1Oc1ccc(Oc2ccccc2C)nn1	-51	14%	-6	-1	1.6
C/C(=N/NC(N)=S)c1ccccc1[N+](=O)[O-]	-35	-3%	0	69	-3.0
COc1ccccc1C(=O)NCCC(=O)N1CCCCCCC1	/	/	/	-2	0.5
COc1ccc(C(=O)Nc2cccnc2)cc1S(=O)(=O)N1CCOCC1	-55	-2%	1	-3	-1.8	Arbovirus inh repeat=3
O=C(NCC(c1cccs1)N1CCOCC1)c1cc(Cl)ccc1[N+](=O)[O-] (centres undefined)	/	/	/	-5	0.2
COC(=O)C1=C(C)NC(=O)CC1c1cc2c(cc1Br)OCO2 (centres undefined)	-32	2%	-7	-2	-6.6	Arbovirus inh repeat=3
O=C(COc1ccc2ccccc2c1Br)N1CCCC1	/	/	/	1	0.6
CS(=O)(=O)N(CC(=O)O)c1ccc2c(c1)OCO2	-17	-6%	4	4	1.4
Cc1ccccc1C(=O)N1CCN(c2ccc(NC(=S)NC(=O)c3cccs3)cc2)CC1	/	61%	-24	92	1.8

A portion of the library; the hit share may differ from the screen's.
